# High-throughput results from PubChem.
# A1 apoptosis 2 = A1 inhibitors via caspase activation, primary screen, cell-based, luminescence, HTS, two replicates; 24,000 tested, under 10 active; MEF A1-2A-BIM cells, caspase-Glo luminescence, 3 h; percent of clofoctol response, DMSO zero; caspase activation, % (test concentration not listed); in the data active = caspase activation above about 5.9%;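 note: wells of about 30 µL received 50 nL stock; the first replicate is given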
#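 Evaluation: Caspase-3/7 activity from luminescence increase | Assay system: A1-2A-BIM mouse embryonic fibroblasts | Quantity: 2500 MEF cells/well | Medium: RPMI-1640 plus 10% FBS | Detection: Caspase-Glo 3/7 luminescence, 1 h at room temperature | Dosing: 50 nL compound per well, pinned | Timing: Cells settled overnight, compound exposure 3 h at 37 °C, 5% CO2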
# * marks the source's active call; other numbers are inactive results. These rows are one share of the data; count on the stated rates, not on these rows.
SMILES,A1 apoptosis 2
COc1ccc(S(=O)(=O)N(C)C[C@H]2Oc3ccc(NS(C)(=O)=O)cc3CC(=O)N([C@@H](C)CO)C[C@H]2C)cc1,0.1
COc1ccc(CN(C)C[C@@H]2OCCCC[C@H](C)Oc3ccc(NC(=O)Nc4c(C)noc4C)cc3C(=O)N([C@@H](C)CO)C[C@H]2C)cc1,-0.3
COCCOC(=O)N1C(=O)[C@@]2(c3cc(C#Cc4ccc(OC)cc4)ccc31)[C@H](c1ccc(OCCO)cc1)N1[C@H](c3ccccc3)[C@H](c3ccccc3)OC(=O)[C@H]1[C@@H]2C(=O)N1CCN(c2ncccn2)CC1,0.0
C[C@@H]1CN([C@@H](C)CO)C(=O)c2cccc(NC(=O)CCCCCC(=O)Nc3ccccc3N)c2O[C@@H]1CN(C)S(=O)(=O)c1ccc(F)cc1,1.1
C[C@H](CO)N1C[C@H](C)[C@@H](CN(C)Cc2ccc(C(F)(F)F)cc2)OCc2cnnn2CCCC1=O,-0.4
O=C(CCCCCCC(=O)Nc1ccccc1O)N/N=C/c1cc(Cl)cc(Cl)c1O,1.2
CC(C)NC(=O)N(C)C[C@H]1OCc2cnnn2CCCC(=O)N([C@@H](C)CO)C[C@H]1C,2.0
C[C@H](CO)N1C[C@H](C)[C@H](CN(C)Cc2ccc(C(F)(F)F)cc2)Oc2ccc(NC(=O)Nc3cccc4ccccc34)cc2C1=O,1.3
COc1ccc(S(=O)(=O)Nc2ccc3c(c2)C(=O)N([C@@H](C)CO)C[C@H](C)[C@@H](CN(C)Cc2ccc(-c4ccccc4)cc2)O3)cc1,-0.7
Cc1ccc(S(=O)(=O)Nc2ccc3c(c2)CC(=O)N([C@H](C)CO)C[C@@H](C)[C@@H](CN(C)C(=O)Nc2cccc4ccccc24)O3)cc1,-1.6

# Brought forward from above: seven compounds; new compounds follow.
SMILES,A1 apoptosis 2
C[C@@H]1CN([C@@H](C)CO)C(=O)c2cccc(NC(=O)CCCCCC(=O)Nc3ccccc3N)c2O[C@@H]1CN(C)S(=O)(=O)c1ccc(F)cc1,1.1
C[C@H](CO)N1C[C@H](C)[C@@H](CN(C)Cc2ccc(C(F)(F)F)cc2)OCc2cnnn2CCCC1=O,-0.4
O=C(CCCCCCC(=O)Nc1ccccc1O)N/N=C/c1cc(Cl)cc(Cl)c1O,1.2
CC(C)NC(=O)N(C)C[C@H]1OCc2cnnn2CCCC(=O)N([C@@H](C)CO)C[C@H]1C,2.0
C[C@H](CO)N1C[C@H](C)[C@H](CN(C)Cc2ccc(C(F)(F)F)cc2)Oc2ccc(NC(=O)Nc3cccc4ccccc34)cc2C1=O,1.3
COc1ccc(S(=O)(=O)Nc2ccc3c(c2)C(=O)N([C@@H](C)CO)C[C@H](C)[C@@H](CN(C)Cc2ccc(-c4ccccc4)cc2)O3)cc1,-0.7
Cc1ccc(S(=O)(=O)Nc2ccc3c(c2)CC(=O)N([C@H](C)CO)C[C@@H](C)[C@@H](CN(C)C(=O)Nc2cccc4ccccc24)O3)cc1,-1.6
C[C@H](CO)N1C[C@H](C)[C@H](CN(C)C(=O)Nc2ccc3c(c2)OCO3)OCCCC[C@H](C)Oc2ccc(NS(C)(=O)=O)cc2C1=O,1.0
COc1ccc(S(=O)(=O)N(C)C[C@@H]2Oc3c(NS(=O)(=O)c4ccc(F)cc4)cccc3C(=O)N([C@@H](C)CO)C[C@H]2C)cc1,-0.2
C[C@@H]1CN([C@@H](C)CO)C(=O)Cc2cc(NC(=O)Cc3cn(C)c4ccccc34)ccc2O[C@@H]1CN(C)Cc1ccc(C(=O)O)cc1,-0.1
C[C@@H]1CN([C@H](C)CO)C(=O)Cc2cc(NC(=O)CCCCCC(=O)Nc3ccccc3N)ccc2O[C@H]1CN(C)S(C)(=O)=O,2.0
C[C@H](CO)N1C[C@H](C)[C@@H](CN(C)C(=O)Nc2ccc3c(c2)OCO3)OCc2cnnn2CCCC1=O,0.3
CNC[C@H]1Oc2ccc(NC(=O)Nc3ccc(OC)cc3)cc2CC(=O)N([C@H](C)CO)C[C@@H]1C,-0.4
COc1ccc(S(=O)(=O)Nc2ccc3c(c2)CC(=O)N([C@@H](C)CO)C[C@@H](C)[C@@H](CN(C)Cc2ccc(-c4ccccc4)cc2)O3)cc1,0.4
C[C@@H]1CN([C@H](C)CO)C(=O)Cc2cc(NC(=O)Nc3cccc4ccccc34)ccc2O[C@@H]1CN(C)Cc1ccc(Oc2ccccc2)cc1,0.5
C[C@@H]1CN([C@H](C)CO)C(=O)c2cc(N(C)C)ccc2O[C@@H](C)CCCCO[C@@H]1CN(C)C(=O)Nc1cccc2ccccc12,0.1
C[C@H]1CN([C@@H](C)CO)C(=O)c2cccc(NC(=O)Nc3ccc(F)cc3)c2O[C@H]1CN(C)C(=O)NC1CCCCC1,-0.6
C[C@H](CO)N1C[C@H](C)[C@@H](CN(C)C(=O)Nc2ccc(F)cc2)Oc2c(NC(=O)c3nc4ccccc4s3)cccc2C1=O,0.0
C[C@H](CO)N1C[C@H](C)[C@@H](CN(C)S(=O)(=O)c2cccs2)Oc2ccc(NC(=O)CCCN(C)C)cc2CC1=O,0.2
Cc1noc(C)c1NC(=O)N(C)C[C@H]1Oc2c(NC(=O)c3nc4ccccc4s3)cccc2C(=O)N([C@H](C)CO)C[C@H]1C,-0.2
C[C@@H]1CN([C@H](C)CO)C(=O)c2cccc(NC(=O)C3CC3)c2O[C@H]1CN(C)C(=O)Nc1ccc(F)cc1,-0.8
C[C@H](CO)N1C[C@H](C)[C@@H](CN(C)Cc2ccc(-c3ccccc3)cc2)Oc2ccc(NC(=O)Nc3ccc(C(F)(F)F)cc3)cc2CC1=O,-0.2
O=C(O)C1=C[C@H](c2ccc(C(F)(F)F)cc2)C[C@H](OCCCCO)O1,-0.1
COc1ccc(NC(=O)N(C)C[C@@H]2Oc3c(NC(=O)C4CCCCC4)cccc3C(=O)N([C@H](C)CO)C[C@H]2C)cc1,-0.4
C[C@@H]1CN([C@@H](C)CO)C(=O)CCCn2cc(nn2)CO[C@@H]1CN(C)Cc1ccc2c(c1)OCCN2C,-1.2
C=CCNC(=O)[C@H]1[C@@H]2C(=O)O[C@@H](c3ccccc3)[C@@H](c3ccccc3)N2[C@@H](c2ccccc2OCCO)[C@]12C(=O)N(C(=O)OCCOC)c1ccccc12,-0.6
C[C@@H]1CN([C@@H](C)CO)C(=O)Cc2cc(NC(=O)CCN3CCOCC3)ccc2O[C@@H]1CN(C)C(=O)Nc1ccccc1,1.3
COc1cccc(NC(=O)N(C)C[C@@H]2OCc3cnnn3CCCC(=O)N([C@H](C)CO)C[C@@H]2C)c1,0.5
Cc1ccc(S(=O)(=O)Nc2ccc3c(c2)C(=O)N([C@@H](C)CO)C[C@H](C)[C@H](CN(C)Cc2ccccc2)O3)cc1,-0.7
COc1ccc(NC(=O)Nc2ccc3c(c2)C(=O)N([C@H](C)CO)C[C@@H](C)[C@@H](CN(C)C(=O)NC2CCCCC2)OCCCC[C@@H](C)O3)cc1,-0.1
C[C@H](CO)N1C[C@H](C)[C@@H](CN(C)C(=O)CCCN(C)C)OCCCC[C@H](C)Oc2ccc(NC(=O)CCCN(C)C)cc2C1=O,0.8
C[C@@H]1CCCCO[C@H](CN(C)C(=O)Nc2cccc3ccccc23)[C@H](C)CN([C@H](C)CO)C(=O)c2cc(NS(=O)(=O)c3ccc(Cl)cc3)ccc2O1,0.5
C[C@@H]1CCCCO[C@H](CN(C)C(=O)CCC(F)(F)F)[C@H](C)CN([C@H](C)CO)C(=O)c2cc(NS(=O)(=O)c3cn(C)cn3)ccc2O1,-0.2
C[C@@H]1CCCCO[C@H](CN(C)Cc2ccc3c(c2)OCO3)[C@H](C)CN([C@@H](C)CO)C(=O)c2cc(NC(=O)Nc3ccccc3)ccc2O1,-0.5
Cc1ccc(S(=O)(=O)Nc2ccc3c(c2)C(=O)N([C@@H](C)CO)C[C@H](C)[C@@H](CN(C)C(=O)Nc2cccc4ccccc24)OCCCC[C@H](C)O3)cc1,-0.4
C[C@H]1CN([C@@H](C)CO)C(=O)c2cc(NS(=O)(=O)c3cccs3)ccc2O[C@@H]1CN(C)Cc1ccc(C(F)(F)F)cc1,-0.4
COc1ccc(CN(C)C[C@H]2OCCCC[C@@H](C)Oc3ccc(NC(=O)NC(C)C)cc3C(=O)N([C@H](C)CO)C[C@H]2C)cc1,0.6
Cc1ccc(S(=O)(=O)Nc2ccc3c(c2)CC(=O)N([C@H](C)CO)C[C@H](C)[C@H](CN(C)C(=O)Nc2ccc(F)cc2)O3)cc1,0.4
COC(=O)c1c2oc(c1C(=O)OC)C(=O)N[C@H](Cc1ccccc1)Cn1cc(nn1)[C@@H](Cc1ccccc1)NC(=O)N[C@@H](CO)CC2,0.2
C[C@H](CO)N1C[C@H](C)[C@H](CN(C)Cc2ccc(Cl)c(Cl)c2)Oc2ccc(NC(=O)Nc3cccc4ccccc34)cc2CC1=O,2.1
C[C@H]1CN([C@@H](C)CO)C(=O)c2cc(NS(=O)(=O)c3cccs3)ccc2O[C@@H]1CN(C)C(=O)NC1CCCCC1,-0.4
Cc1ccc(S(=O)(=O)N(C)C[C@@H]2Oc3c(NC(=O)c4ccc(-c5nccs5)cc4)cccc3C(=O)N([C@H](C)CO)C[C@@H]2C)cc1,-0.2
C[C@H](CO)N1C[C@H](C)[C@H](CN(C)S(=O)(=O)c2ccc(Cl)cc2)Oc2ccc(NC(=O)Cc3ccccc3)cc2CC1=O,-0.2
Cc1noc(C)c1S(=O)(=O)Nc1ccc2c(c1)CC(=O)N([C@H](C)CO)C[C@H](C)[C@H](CN(C)S(=O)(=O)c1ccccc1)O2,-0.3
C[C@@H]1CN([C@@H](C)CO)C(=O)c2cc(NC(=O)Nc3ccccc3)ccc2O[C@@H](C)CCCCO[C@@H]1CN(C)S(=O)(=O)c1ccccc1,-0.1
Cc1noc(C)c1S(=O)(=O)Nc1ccc2c(c1)CC(=O)N([C@H](C)CO)C[C@H](C)[C@@H](CN(C)C)O2,-0.3
C[C@H]1CN([C@@H](C)CO)C(=O)Cc2cc(NS(=O)(=O)c3ccccc3)ccc2O[C@@H]1CN(C)Cc1ccccc1,0.1
C[C@@H]1CCCCO[C@H](CN(C)C(=O)C2CCCCC2)[C@@H](C)CN([C@H](C)CO)C(=O)c2cc(NS(=O)(=O)c3ccc(F)cc3)ccc2O1,0.7
C[C@@H]1CN([C@H](C)CO)C(=O)c2cc(NS(=O)(=O)c3ccc(F)cc3)ccc2O[C@@H](C)CCCCO[C@@H]1CN(C)C(=O)CCCN(C)C,0.7
C[C@@H]1CCCCO[C@H](CN(C)S(=O)(=O)c2ccccc2)[C@H](C)CN([C@@H](C)CO)C(=O)c2cc(NC(=O)Nc3ccccc3)ccc2O1,0.5
C[C@H](CO)N1C[C@H](C)[C@@H](CN(C)C(=O)Nc2cccc3ccccc23)Oc2c(NC(=O)c3ccncc3)cccc2C1=O,-0.6
Cc1ccc(S(=O)(=O)N(C)C[C@H]2Oc3c(NC(=O)C4CC4)cccc3C(=O)N([C@H](C)CO)C[C@H]2C)cc1,-0.3
CNC[C@@H]1Oc2c(NS(=O)(=O)c3ccc(C)cc3)cccc2C(=O)N([C@H](C)CO)C[C@@H]1C,0.6
C[C@@H]1CCCCO[C@@H](CN(C)C(=O)Nc2ccc(F)cc2)[C@H](C)CN([C@@H](C)CO)C(=O)c2cc(NS(=O)(=O)c3ccccc3)ccc2O1,-1.5
CC(C)NC(=O)Nc1cccc2c1O[C@H](CN(C)C(=O)Nc1cccc3ccccc13)[C@@H](C)CN([C@@H](C)CO)C2=O,-0.5
CC(C)NC(=O)Nc1ccc2c(c1)C(=O)N([C@H](C)CO)C[C@H](C)[C@H](CN(C)Cc1ccncc1)OCCCC[C@@H](C)O2,0.2
COc1ccc(-c2cnc3c(c2)C(=O)N([C@H](C)CO)C[C@H](C)[C@H](CN(C)S(=O)(=O)c2cccs2)O3)cc1,-0.9

# Next results
SMILES,A1 apoptosis 2
COc1ccc(S(=O)(=O)Nc2ccc3c(c2)C(=O)N([C@H](C)CO)C[C@@H](C)[C@@H](CN(C)S(=O)(=O)c2c(C)noc2C)O3)cc1,-0.5
COc1ccc(NC(=O)Nc2ccc3c(c2)C(=O)N([C@H](C)CO)C[C@H](C)[C@H](CN(C)S(=O)(=O)c2ccc(Cl)cc2)OCCCC[C@H](C)O3)cc1,-0.2
C[C@H]1CN([C@@H](C)CO)C(=O)Cc2cc(NC(=O)Cc3ccccc3)ccc2O[C@H]1CN(C)S(C)(=O)=O,0.7
C[C@H]1CN([C@@H](C)CO)C(=O)c2cc(NS(=O)(=O)c3ccc(F)cc3)ccc2O[C@@H]1CN(C)Cc1ccccc1,-1.5
C[C@H]1CN([C@@H](C)CO)C(=O)c2cccc(NS(=O)(=O)c3cccs3)c2O[C@H]1CN(C)S(=O)(=O)c1ccc(Cl)cc1,-0.8
CNC[C@@H]1OCCCC[C@H](C)Oc2ccc(NC(=O)Nc3c(C)noc3C)cc2C(=O)N([C@H](C)CO)C[C@@H]1C,1.2
C[C@@H]1CCCCO[C@H](CN(C)CC2CC2)[C@H](C)CN([C@@H](C)CO)C(=O)c2cc(NC(=O)C3CCCCC3)ccc2O1,0.2
C[C@@H]1CN([C@@H](C)CO)C(=O)c2cc(NS(=O)(=O)c3cccs3)ccc2O[C@H]1CN(C)C(=O)NC1CCCCC1,-0.2
C[C@H]1CN([C@@H](C)CO)C(=O)c2cccc(NC(=O)C3CCCCC3)c2O[C@H]1CN(C)Cc1ccc(C(=O)O)cc1,-0.7
